High-throughput results as filed in PubChem.
ClpP mod = qHTS Assay for Activators of ClpP; AID 651965, 2013; ATP-dependent Clp protease proteolytic subunit (Bacillus subtilis (strain 168)), P80244; Potency, µM (doses to about 57.5 µM), for inactives: top-dose activity change, negative = active; purified B. subtilis ClpP, FRET peptide cleavage, 20 min; 1.9% of 340,000 active; active = well fitted falling curve with a large enough effect; inconclusive = small, poorly fitted or top-dose-only effect; inactive = no such curve, though single readings can be large or run the other way; note: potency is the fitted concentration of half-maximal effect; the source files actives as falling curves though it sought activators and does not explain the sign; nearly all actives have a fitted effect of over 65% in size; many hits overshoot -100%
Target sequence (P80244 whole entry, looked up): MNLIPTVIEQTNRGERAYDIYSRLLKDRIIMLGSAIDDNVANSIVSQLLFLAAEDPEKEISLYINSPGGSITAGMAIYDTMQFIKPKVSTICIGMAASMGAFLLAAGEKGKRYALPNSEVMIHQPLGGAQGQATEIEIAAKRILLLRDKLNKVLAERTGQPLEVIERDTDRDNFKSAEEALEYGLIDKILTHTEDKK
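Purified B. subtilis ClpP, 10 microg/mL final in Tris/HCl pH8 with KCl, BSA, glycerol and Tween-20, cleaved an Abz/nitrotyrosine-quenched decapeptide. Fluorescence (ex 320, em 430) was read at 0 and 20 min at room temperature. Delta was normalized to 5.8 microM ADEP and DMSO/no-enzyme controls.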
CtBP-E1A inh = blocks the CtBP interaction with E1A; AlphaScreen GST-E1A/His-CtBP binding, 1536-well; hits give low values; control for the full effect not named in the record; activity change, % (test concentration not listed); 0.49% of 340,000 active; in the data active means activity change below about -65%; inconclusive means about -30% to -65%; inactive means above about -30%; note: % is set by controls: 0 for no effect and ±100 for the full control effect; compound concentration not given in the record
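In 5 uL wells, 23 nL compound meets equimolar GST-E1A and His-CtBP (5X stock 125 nM each) for 2 h, 37 °C. Beads (5X, 50 ug/mL) then 1 h, 37 °C, dark.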
Menin-MLL FL inh = menin-MLL binding inhibition, fluorescein peptide | Fluorescence polarization, fluorescein-MLL peptide displacement from menin | FP activity change, % at 61.4 µM | 290,000 tested, under 10 active; inconclusive = falling polarisation curve, or a change in total fluorescence; inactive = total fluorescence flat and polarisation flat or rising; no compound was filed as active; the % refers to the polarisation; negative = inhibition;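 note: % of control where 0% means no effect; inhibitors lower the polarisation; unlabelled MLL peptide was the positive control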
TRPV1 potentiator = potentiators of human vanilloid receptor 1 (TRPV1). potentiation, % at 8.33 µM. 0.02% of 320,000 active. TRPV1-expressing cells, Fluo-8 calcium influx, capsaicin EC20 potentiation; host cell line not named in the record; control for the full effect not named in the record; active means potentiation above 80%; inconclusive means 30% to 80%; inactive means below 30%; note: 0% is about no effect
Target sequence (Q8NER1 whole entry, looked up): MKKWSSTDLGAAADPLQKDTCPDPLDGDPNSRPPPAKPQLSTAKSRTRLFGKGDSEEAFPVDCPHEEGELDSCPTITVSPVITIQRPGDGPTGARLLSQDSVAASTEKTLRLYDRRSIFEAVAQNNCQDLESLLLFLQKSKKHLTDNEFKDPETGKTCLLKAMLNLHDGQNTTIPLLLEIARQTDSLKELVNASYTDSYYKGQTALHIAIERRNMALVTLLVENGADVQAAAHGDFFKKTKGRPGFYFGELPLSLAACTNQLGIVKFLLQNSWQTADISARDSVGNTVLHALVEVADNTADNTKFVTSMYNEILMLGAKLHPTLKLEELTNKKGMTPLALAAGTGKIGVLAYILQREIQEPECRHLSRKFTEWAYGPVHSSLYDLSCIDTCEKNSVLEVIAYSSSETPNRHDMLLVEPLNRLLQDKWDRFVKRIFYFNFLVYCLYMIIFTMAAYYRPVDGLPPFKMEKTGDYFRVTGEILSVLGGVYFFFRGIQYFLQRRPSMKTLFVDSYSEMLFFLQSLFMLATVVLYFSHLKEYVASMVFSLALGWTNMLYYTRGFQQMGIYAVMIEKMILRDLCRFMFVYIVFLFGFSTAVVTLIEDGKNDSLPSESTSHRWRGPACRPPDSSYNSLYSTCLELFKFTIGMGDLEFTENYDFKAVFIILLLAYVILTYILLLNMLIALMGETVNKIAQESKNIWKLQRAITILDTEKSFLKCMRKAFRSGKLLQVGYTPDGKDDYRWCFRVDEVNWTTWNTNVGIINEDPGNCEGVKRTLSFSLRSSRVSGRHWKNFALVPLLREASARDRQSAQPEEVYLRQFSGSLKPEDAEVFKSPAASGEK
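Cells expressing TRPV1 were dye-loaded with Fluo-8 and read kinetically: 10 s baseline, 3 min after compound (agonist portion), then 2 min after EC20 capsaicin (allosteric enhancer portion). Calcium-bound dye fluorescence at 480/520 nm.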
gsp ag = gsp mutant agonism; gsp mutant cells, cAMP HTRF, 30 min; control for the full effect not named in the record; Potency, µM (titrated, usually from 76.9 µM), inactives show top-dose activation (cAMP increase), actives largely listed as activators; 0.13% of 340,000 active; AID 624287; active = well fitted activation curve with a large enough effect; inconclusive = small, poorly fitted or top-dose-only effect, or another doubt; inactive = no such curve, though single readings can be large or run the other way; cell line not stated here;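 note: phosphodiesterase inhibitor Ro 20-1724 added with compounds to block cAMP breakdown; potency is the fitted concentration of half-maximal effect; nearly all actives have a fitted effect of over 60% in size; about a fifth of the inactives were tested at one dose only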
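Cells stably selected in G418 were plated at 2000/well, grown 16-24 hr, then given compounds in DMSO with the PDE inhibitor […] (300 uM solution added) for 30 min at 37C; cAMP was read by HTRF.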
gsp antagonist = antagonists of gsp mutant (McCune-Albright syndrome); gsp-mutant cells, cAMP HTRF, 30 min; control for the full effect not named in the record; Potency, µM (doses to about 76.9 µM), for the others: top-dose activity change, negative = inhibition, most hits filed as inhibitors; 0.4% of 340,000 active; AID 624288; active = falling curve of any shape with a large fitted effect; inconclusive = falling curve, mostly with a smaller effect; inactive = flat or rising curve; cell line not stated here;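 note: intracellular cAMP measured with PDE inhibitor Ro 20-1724 present during compound exposure; potency is the fitted concentration of half-maximal effect; % is set by controls: 0 for no effect and ±100 for the full control effect; nearly all actives have a fitted effect of over 65% in size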
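HTRF cAMP measurement after 30 min RT detection following 30 min, 37C compound treatment alongside […] (added as 300 uM solution) in G418-selected cells seeded at 2000/well and grown 16–24 h.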
Sfp inh = blocks B. subtilis Sfp PPTase activity. Q9F4F7. Potency, µM, for inactives: max response, negative = inhibition, most hits filed as inhibitors. 3.5% of 310,000 active. Biochemical Sfp PPTase activity, qHTS; active = well fitted inhibition curve with a large enough effect; inconclusive = small, poorly fitted or top-dose-only effect, or another doubt; inactive = no such curve, though single readings can be large or run the other way;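 note: the enzyme is Sfp with the accession as filed and its product quenches rhodamine fluorescence; potency is the fitted concentration of half-maximal effect; 0% = enzyme reaction without inhibitor and -100% = no enzyme wells; top concentration of the series not given in the record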
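Fluorescence-quenching assay: 15 nM Sfp-PPTase preincubated 15 min at room temperature with compound, then 5 uM rhodamine-CoA and 12.5 uM BHQ-2-labelled YbbR peptide added. Fluorescence (ex 525/em 598 nm) read at start and after 30 min; difference gives rate.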
The depositor's hits bear a star; ? = inconclusive; · = not tested or not shown; [ ] = remark or other dose. The order is random, and some 5.3% of all compounds hit somewhere here.

SMILES	ClpP mod	CtBP-E1A inh	Menin-MLL FL inh	TRPV1 potentiator	gsp ag	gsp antagonist	Sfp inh
COc1ccc(-c2ccc(/C=C3\C(=O)N(c4ccccc4)N=C3c3ccccc3)o2)c([N+](=O)[O-])c1	-0.3%	-3	0.3	8	23%	0%	13%
O=C(CSc1nc(-c2ccccc2)cs1)N1CCc2ccccc21	0.4%	3	2.9	12	-6%	8%	-3%
CCN(CC(=O)Nc1ccccc1OC)C(=O)COc1ccc(C#N)cc1	-1.9%	-11	·	·	-9%	7%	·
Cc1cc(NC(=O)CCC(=O)N(Cc2cccnc2)C(C(=O)NC(C)(C)C)c2ccccc2Cl)no1 (centres undefined)	0.4%	9	-1.9	19	1%[15.4 µM]	3%	12%
NC(=O)CC(NC(=O)Cc1ccc(Br)cc1)c1ccc(NCc2cc(F)ccc2F)c([N+](=O)[O-])c1 (centres undefined)	1.8%	1	-1.6	2	·	-2%	?
COc1cc(NC(=S)NC(=O)c2c(OC)cccc2OC)ccc1NC(=O)c1cccs1	-2.6%	-4	1.7	-30	15%	5%	18%
Cc1cccc(C)c1NC(=O)/C(=C/c1ccco1)c1ccccc1	-1.5%	-11	24	24	-15%	-10%	22µM*
Cc1ccc(CN2CCN(/N=C/c3ccc(Cl)c([N+](=O)[O-])c3)CC2)cc1	·	?	2.1	17	-41%[inhibitor]	-2%	3%
Cc1cccc(Nc2nc(N)nc(CSc3nccc(C)n3)n2)c1	1.1%	-9	1.9	3	2%	4%	0%
Cc1cc(C)n(CC(=O)N2c3ccccc3Sc3ccc(C(F)(F)F)cc32)n1	·	4	0.4	6	-31%[inhibitor]	7%	16%
COc1ccc(C(C(=O)NC2CCCC2)N(C(=O)c2ccco2)c2cccc(C(C)=O)c2)cc1OC (centres undefined)	·	1	·	1	3%[15.4 µM]	-2%	10%
Cc1ccc(CN2CC(=O)N3[C@H]4c5cc(C)ccc5OC[C@@H]4[C@H](c4ccccc4)[C@]3(C)C2=O)cc1	-1.4%	-9	·	4	14%	-21%	·
O=C1CC(Nc2ccc(N3CCOCC3)cc2)C(=O)N1CCc1ccccc1 (centres undefined)	1.8%	-7	3.5	-7	3%	-12%	3%
N#CCCN(C(=O)COC(=O)c1ccc(S(=O)(=O)N2CCCC2)cc1)c1cccc(Cl)c1	-0.1%	5	·	-4	3%	-2%	·
O=C(Nc1nnc(-c2ccccc2F)s1)C1CCCO1 (centres undefined)	-24%	2	4.4	-8	-13%	-8%	-20%
Cc1nn(-c2ccccc2)c(C)c1/C=N/NC(=O)c1cccs1	25µM*	-26	4.0	2	7%	-10%	5%
CC(NCCC(Cc1ccccc1)c1ccco1)c1ccccc1 (centres undefined)	0.1%	0	-1.4	-18	?	14%	7%
Cc1ccc(C)c(NC(=O)CN(C)C(=O)c2ccccc2OCc2ccc(Cl)cc2)c1	·	5	·	-41	-1%[15.4 µM]	-23%	·
CNC(=O)CN1C(=O)NC(c2ccccc2)(c2ccccc2)C1=O	·	0	0.0	6	7%[15.4 µM]	3%	9%
O=C(NCC(=O)N1CCN(c2ccccc2)CC1)c1ccc(Br)o1	-0.5%	-28	·	?	0%	8%	13%
CCC(=O)N1CCc2cc(Br)cc(S(=O)(=O)N3CCN(C(=O)c4ccco4)CC3)c21	-2.2%	-2	0.0	-8	-24%	-16%	7%
CC(C)S(=O)(=O)c1csc(C(=O)NN)c1-n1cccc1	-1.2%	-1	2.9	11	-10%[15.4 µM]	3%	-7%
NS(=O)(=O)c1cccc(NC(=O)C(Cc2ccccc2)NC(=O)c2ccccc2)c1 (centres undefined)	·	1	4.0	4	3%[15.4 µM]	10%	8%
CC[N+](C)(C)CC/C=C1/c2ccccc2Sc2ccc(Cl)cc21	·	0	?	-3	5%[15.4 µM]	5%	-15%
COc1ccccc1NC(=O)N1CCCC1C(=O)NC12CC3CC(CC(C3)C1)C2 (centres undefined)	-2.7%	4	3.8	-13	20%	-13%	2%

New compounds follow:
SMILES	ClpP mod	CtBP-E1A inh	Menin-MLL FL inh	TRPV1 potentiator	gsp ag	gsp antagonist	Sfp inh
O=C(CN1C(=O)c2ccccc2S1(=O)=O)NCc1ccc2c(c1)OCO2	0.6%	11	2.5	9	-24%	-2%	8%
O=C1c2ccccc2C(=O)N1CSc1ncccn1	?	2	4.3	-1	0%	4%	15%
c1ccc(-c2nc(NCc3ccco3)c3ccccc3n2)cc1	-2.4%	-6	4.0	?	?	?	11µM*
CCOc1cc(C(=S)N2CCOCC2)ccc1OS(=O)(=O)c1ccc(Br)cc1	·	-10	-0.5	3	-23%	-8%	23%
CCOc1cc(/C=N/NC(=O)C2CC2)ccc1OC(C)C	-12%	1	·	3	28%	5%	10%
O=C(O)c1ccc(-n2ncc(Cl)c(Cl)c2=O)cc1	-1.6%	-10	·	·	10µM*	·	·
CCOC(=O)C1=C(N)OC2=C(C(=O)CCC2)C1c1ccc(C)s1 (centres undefined)	1.1%	10	0.7	-9	-3%	-3%	-22%
CNS(=O)(=O)c1ccc(CNC[C@H]2O[C@@H](n3cc(C)c(=O)[nH]c3=O)C[C@@H]2O)cc1	0.7%	3	·	·	19%	·	·
CCN1C(=O)C2(C(C#N)=C(N)Oc3n[nH]c(-c4ccc(Cl)cc4)c32)c2ccccc21 (centres undefined)	1.2%	-1	5.1	0	0%	-8%	-1%
NS(=O)(=O)c1ccc(NC(=O)CN2CCc3ccccc32)cc1	·	0	-0.9	8	-7%[15.4 µM]	11%	0%
CN1CCN(S(=O)(=O)c2ccc(CNC(=O)c3ccccc3)s2)CC1	-2.3%	-10	-1.1	12	12%	1%	11%
CC(NC(=O)C1CCC(C)(C(=O)O)C1(C)C)c1ccccc1 (centres undefined)	2.0%	20	-11	2	-15%[15.4 µM]	-5%	7%
Cc1ccc2[nH]c3c(NCc4ccccc4)ncnc3c2c1	3.3%	-1	-9.0	12	?	?	-23%
CCOc1ccc(C(=O)NCC2(c3ccccc3)CCOCC2)cc1	-1.0%	·	1.8	27	?	2%	21%
CCCc1cc(=O)[nH]c(SCC(=O)c2c[nH]c3ccccc23)n1	·	·	5.7	15	4%[15.4 µM]	4%	15%
Cc1ccc(NCc2nnc(SCC(=O)N3c4ccccc4Sc4ccccc43)o2)c(C)c1	-1.2%	-25	0.5	9	-14%	-4%	6%
COC(=O)C1=C(C)N(C(C)c2ccccc2)C(=O)C1 (centres undefined)	-2.0%	11	1.3	-15	20%[15.4 µM]	-3%	9%
CCc1cccc(NC(=O)CSc2nnc(Cc3ccc(OC)cc3)c(=O)[nH]2)c1	-1.0%	-4	·	10	-6%	-9%	·
CC(C)NS(=O)(=O)c1ccc(NCCCn2ccnc2)c([N+](=O)[O-])c1	·	0	·	8	2%[15.4 µM]	3%	10%
N#Cc1cnc(SCC(=O)N2CCCCC2)nc1N	1.2%	7	·	·	-13%	10%	·
Cc1cccc(NC(=O)C2CCCCN2S(=O)(=O)c2ccccc2)c1C (centres undefined)	2.7%	·	·	·	18%	-5%	·
O=C(CCSc1ccccc1)OCn1nnc2ccccc2c1=O	·	13	-0.2	-2	-2%[15.4 µM]	4%	-14%
CC(C)(C)OC(=O)N1CCC(C(=O)Nc2ccc(C(=O)NC3CC3)cc2)CC1	1.1%	4	·	·	·	-4%	·
CCc1ccc(C(=O)NNC(=O)CN2C(=O)NC(CC)(c3ccccc3)C2=O)cc1 (centres undefined)	·	-1	·	-21	-19%[15.4 µM]	16%	·
CCOc1ccc(CCNC(=O)c2ccc(=O)[nH]c2)cc1OCC	0.7%	-21	·	-11	3%	20%	3%

9 structures out of the list, arranged by length of the SMILES, lowest first:
SMILES	ClpP mod	CtBP-E1A inh	Menin-MLL FL inh	TRPV1 potentiator	gsp ag	gsp antagonist	Sfp inh
O=C1c2ccccc2C(=O)N1CSc1ncccn1	?	2	4.3	-1	0%	4%	15%
CCOc1ccc(CCNC(=O)c2ccc(=O)[nH]c2)cc1OCC	0.7%	-21	·	-11	3%	20%	3%
CC(NC(=O)C1CCC(C)(C(=O)O)C1(C)C)c1ccccc1 (centres undefined)	2.0%	20	-11	2	-15%[15.4 µM]	-5%	7%
CCOC(=O)C1=C(N)OC2=C(C(=O)CCC2)C1c1ccc(C)s1 (centres undefined)	1.1%	10	0.7	-9	-3%	-3%	-22%
CN1CCN(S(=O)(=O)c2ccc(CNC(=O)c3ccccc3)s2)CC1	-2.3%	-10	-1.1	12	12%	1%	11%
CCOc1cc(C(=S)N2CCOCC2)ccc1OS(=O)(=O)c1ccc(Br)cc1	·	-10	-0.5	3	-23%	-8%	23%
CCc1cccc(NC(=O)CSc2nnc(Cc3ccc(OC)cc3)c(=O)[nH]2)c1	-1.0%	-4	·	10	-6%	-9%	·
CC(C)(C)OC(=O)N1CCC(C(=O)Nc2ccc(C(=O)NC3CC3)cc2)CC1	1.1%	4	·	·	·	-4%	·
CNS(=O)(=O)c1ccc(CNC[C@H]2O[C@@H](n3cc(C)c(=O)[nH]c3=O)C[C@@H]2O)cc1	0.7%	3	·	·	19%	·	·

The listing continues:
SMILES	ClpP mod	CtBP-E1A inh	Menin-MLL FL inh	TRPV1 potentiator	gsp ag	gsp antagonist	Sfp inh
COc1cc(NC(=O)c2cccnc2)c(OC)cc1NC(=O)c1ccc(Br)cc1	·	3	·	-17	1%	1%	2%
CCOC(=O)c1ccc2[nH]c(C)c(C)c2c1	-7.6%	-2	·	·	26%	5%	·
Cc1nn2c(-c3cccc(NC(=O)c4ccco4)c3)nnc2c2ccccc12	-2.2%	-88*	-0.5	?	?	24%	11%
CCN(Cc1ccncc1)C(=O)c1ccc(C)o1	-2.1%	6	·	2	-14%	1%	6%
Cc1ccc2occ(C3N[C@H](C(=O)O)CS3)c(=O)c2c1 (some centres undefined)	-14%	-5	?	27	22%	-4%	50µM*
Cc1ccc([N+](=O)[O-])cc1S(=O)(=O)Nc1ccc(-c2ccc(N3CCOCC3)nn2)cc1	-2.9%	-6	·	4	24%	?	·
O=C(NCC(c1ccco1)N1CCCCC1)c1cc2c(s1)CCCC2 (centres undefined)	0.6%	3	·	-34	2%	-5%	·
